VDR inhibitor: inhibitors of human vitamin D receptor | Potency, µM, without a hit: max response, negative = inhibition, actives largely listed as inhibitors | P11473 | VDR-SRC2-3 peptide fluorescence polarization, 2 h | actives 0.93% (n = 400,000); active = well fitted inhibition curve with a large enough effect; inconclusive = small, poorly fitted or top-dose-only effect, or another doubt; inactive = no such curve, though single readings can be large or run the other way; also: series mostly up to about 120 µM
Target sequence (P11473 whole entry, looked up): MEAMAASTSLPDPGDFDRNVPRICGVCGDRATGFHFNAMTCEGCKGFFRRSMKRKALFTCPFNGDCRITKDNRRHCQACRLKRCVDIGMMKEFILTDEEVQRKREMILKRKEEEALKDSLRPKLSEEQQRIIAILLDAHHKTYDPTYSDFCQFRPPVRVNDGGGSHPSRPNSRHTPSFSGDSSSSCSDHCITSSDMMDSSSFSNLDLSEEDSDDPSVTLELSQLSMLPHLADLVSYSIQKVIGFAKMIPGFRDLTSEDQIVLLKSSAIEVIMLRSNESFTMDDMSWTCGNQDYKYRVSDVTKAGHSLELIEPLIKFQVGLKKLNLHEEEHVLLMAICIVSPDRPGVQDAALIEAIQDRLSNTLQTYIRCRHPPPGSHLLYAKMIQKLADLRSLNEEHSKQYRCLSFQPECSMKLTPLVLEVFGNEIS
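Fluorescence polarization assay of small-molecule disruption of VDR binding to coregulator peptide SRC2-3. Compounds and controls pin-transferred, then read after 2 h incubation at ambient room temperature.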
An asterisk follows results filed as active; u = inconclusive; & = joins results of further samples. % is scaled to controls: 0 for no effect and ±100 for the full control effect; potency is read from the fitted curve at half-maximal effect. Some of the compounds tested, so the mix of outcomes need not match the whole.

SMILES	VDR inhibitor
Cc1onc(-c2ccccc2)c1C(=O)N1CCCCCC1	8%
COc1ccc(C/C(C)=N/NC(=O)c2cccnc2)cc1	-1%
O=C(COc1ncnc2c(Cl)cc(Cl)cc12)N1CCCCC1	-20%
Cc1cc(S(=O)(=O)N2CCOCC2)ccc1OCC(=O)Nc1ccc(F)cc1F	-4%
CCCOc1ccc(Cl)cc1Nc1nc(NCCO)nc(N2CCCC2)n1	-2%
CCc1ccc(-c2[nH]nc3nc(-c4ccc(OC)cc4)cc(C(=O)NCCCOC)c23)cc1	9%
CCCCC(NC(=O)Cc1c(C)c2cc3c4c(oc3c(C)c2oc1=O)CCCC4)C(=O)O (stereo not drawn)	-15%
O=C(OCCCN1CCCCC1)c1ccc(O)cc1	-7%
Cc1csc2nc(COC(=O)c3ccccc3NC(=O)c3ccccc3Cl)cc(=O)n12	6%
COc1cccc(NC(=O)c2ccccc2N2C(=O)C3C4C=CC(C4)C3C2=O)c1 (stereo not drawn)	3%
CS(=O)(=O)N1CCN(C(=O)c2cc(-c3ccccc3)nc3ccccc23)CC1	1%
CCOC(=O)C1CCCN(c2c(NCCCN(C)Cc3ccccc3)c(=O)c2=O)C1 (stereo not drawn)	6%
COc1ccc(CC(=O)Nc2c(C(=O)N3CCN(c4ncccn4)CC3)oc3ccccc23)cc1	-6%
C=CC(=O)NC(C)(C)Cc1ccccc1	22%
CC1CCCN(c2nc3c(c(=O)n(C)c(=O)n3C)n2Cc2ccccc2)C1 (stereo not drawn)	-19%
COc1ccc(N(Cc2nnc3n2CCCCC3)C(=O)Nc2ccccc2)cc1	-8%
COc1ccc(NC(=O)CCC(=O)N(Cc2ccc(OC)c(OC)c2)c2nccs2)cc1	-3%
Cn1c(=O)[nH]c(=O)c2c1nc(N1CCCCC1)n2CC(O)COc1ccccc1 (stereo not drawn)	-16%
CCCCn1c(NC(=O)c2ccco2)c(S(=O)(=O)c2ccc(C)cc2)c2nc3ccccc3nc21	u
O=C1NN=C(c2ccc(Cl)cc2)CC1c1c[nH]c2ccccc12 (stereo not drawn)	-14%

Arranged by value in VDR inhibitor (descending): some entries from above.
canonical_smiles	VDR inhibitor
C=CC(=O)NC(C)(C)Cc1ccccc1	22%
CS(=O)(=O)N1CCN(C(=O)c2cc(-c3ccccc3)nc3ccccc23)CC1	1%
COc1ccc(NC(=O)CCC(=O)N(Cc2ccc(OC)c(OC)c2)c2nccs2)cc1	-3%
O=C1NN=C(c2ccc(Cl)cc2)CC1c1c[nH]c2ccccc12 (stereo not drawn)	-14%
Cn1c(=O)[nH]c(=O)c2c1nc(N1CCCCC1)n2CC(O)COc1ccccc1 (stereo not drawn)	-16%

(further entries)
SMILES	VDR inhibitor
O=C(CCN1C(=O)/C(=C/c2ccc3c(c2)OCO3)SC1=S)Nc1ccc(C(=O)O)cc1	6%
COc1cccc(C(=O)NCC(c2ccc(N(C)C)cc2)N2CCc3ccccc32)c1 (stereo not drawn)	-2%
O=C(COc1ccc(Cl)cc1)N1CCN(Cc2ccc3c(c2)OCO3)CC1	-13%&-1%&5%&8%
C/C(=N/NC(=O)c1ccc(Cl)s1)c1cccnc1	-11%
Cc1coc2cc3oc(=O)c(CCC(=O)NCCN4CCOCC4)c(C)c3cc12	-14%
CCC(=O)Nc1ccc(C(=O)CSc2nnc(CNc3ccc(Cl)cc3)o2)cc1OC	18%
COc1ccc(CNC(=O)c2ccc(Cn3cc(Cl)cn3)o2)cc1	-8%
CCc1ccc(OCC(=O)N/N=C(\C)c2ccc(-n3ccnc3)cc2)cc1	-10%
Cc1ccc(NC(=O)COC(=O)CCc2c[nH]c3ccccc23)cc1[N+](=O)[O-]	9%
CCOc1ncccc1C(=O)NCc1ccccc1F	-5%
O=C(NCCCN1CCOCC1)c1ccc(S(=O)(=O)N2CCOCC2)cc1	-8%
COc1ccc(CCNC(=O)c2ccc(Cn3c(=O)c4ccccc4n(CC(=O)C(C)(C)C)c3=O)cc2)cc1OC	0%
CCOC(=O)CSc1nc(-c2ccccc2)nc2ccc(C)cc12	-26%
C=CCNc1nc(Cl)nc(Nc2ccc(OCC)cc2)n1	-8%
C#CCOc1ccc(C2C3=C(CC(C)(C)CC3=O)N(CC(=O)O)C3=C2C(=O)CC(C)(C)C3)cc1	-19%
CSCc1c(C(=O)Nc2ccc(N3CCOCC3)cc2)oc2ccccc12	-2%
Cc1nn(Cc2ccccc2)c(C)c1NC(=O)CSc1nc2c(c(C(F)(F)F)n1)CCc1ccccc1-2	-12%
COc1ccc(NC(=O)Nc2ccc3c(c2)CC(=O)N([C@H](C)CO)C[C@@H](C)[C@H](CN(C)C(=O)Nc2ccccc2)O3)cc1	-5%
Cc1ccc(CCNC(=O)C2CCN(S(=O)(=O)N3CCCCC3)CC2)cc1	6%
COc1ccc([C@@H]2[C@@H]3C(=O)N(C(C)(C)C)C(=O)[C@@H]3[C@]3(Cc4ccccc4)C(=O)N(c4cccc(F)c4)C(=O)N23)cc1	6%
COC(=O)N1CCN(CCc2ccccc2)CC1	12%
Cc1cccc(C(=O)Nc2ccnc(-c3ccncc3)n2)c1	-13%
COCCCNC(=O)c1ccc(Cn2c(=O)c3ccccc3n(Cc3cc(C)ccc3C)c2=O)cc1	5%
CC(=O)N1CCc2c(sc3c2c(=O)n(-c2ccccc2)c(=O)n3CC(=O)Nc2cccc(C)c2)C1	-12%
CN[C@H](CC(C)C)C(=O)N[C@H]1C(=O)N[C@@H](CC(N)=O)C(=O)N[C@@H]2C(=O)N[C@H]3C(=O)N[C@H](C(=O)N[C@H](C(=O)O)c4cc(O)cc(O)c4-c4cc3ccc4O)[C@H](O)c3ccc(c(Cl)c3)Oc3cc2cc(c3O[C@@H]2O[C@H](CO)[C@@H](O)[C@H](O)[C@@H]2O[C@H]2C[C@](C)(N)[C@H](O)[C@H](C)O2)Oc2ccc(cc2Cl)[C@H]1O	-3%
O=C(COC(=O)c1ccco1)c1ccc(S(=O)(=O)N2CCCCC2)cc1	7%
COc1ccc(NC(=S)NCCc2ccc(Cl)cc2)c(OC)c1	-6%
COC(=O)CCC(=O)N1CCCC(N2CCN(c3cccc(C(F)(F)F)c3)CC2)C1 (stereo not drawn)	-17%
O=C(Nc1ccnn1C1CCN(C2CCC2)CC1)c1ccccc1	-7%
O=C1NC2(CCCCCC2)Oc2ccccc21	-2%
CCN(CC)C(=O)CSc1nnc(-c2ccccn2)n1-c1ccccc1OC	-2%
O=C1CC2(CCCC2)CC(=O)N1CCNCC1COc2ccccc2O1 (stereo not drawn)	-4%
Cc1ccc2c(CNCc3ccccc3)cc(=O)oc2c1	-8%
Cc1c(Cc2ccccc2)c(=O)oc2c(C)c(OCC(=O)N[C@@H](Cc3ccccc3)C(=O)O)ccc12	u
CCOC(=O)CNC(=O)Cn1cnc2sc(C)c(S(=O)(=O)N3CCOCC3)c2c1=O	-29%
O=C(Nc1cc(Cl)ccc1Oc1ccccc1)c1cnccn1	20%
O=C(CCNS(=O)(=O)c1ccc(Br)cc1)NCCc1ccccc1	7%
CSc1nc(C)cc(NC(N)=O)n1	6%
CC(C(=O)O)N1C(=O)c2cccc3cccc1c23 (stereo not drawn)	2%
CC1(c2ccc3c(c2)OCCO3)NC(=O)N(CC(=O)Nc2ccccc2)C1=O (stereo not drawn)	-12%

2 consecutive compounds already listed:
SMILES	VDR inhibitor
CC(C(=O)O)N1C(=O)c2cccc3cccc1c23 (stereo not drawn)	2%
CC1(c2ccc3c(c2)OCCO3)NC(=O)N(CC(=O)Nc2ccccc2)C1=O (stereo not drawn)	-12%

Other results.
SMILES	VDR inhibitor
CC(=O)Nc1cccc(N/C=C(\C=O)c2nc3ccccc3o2)c1	-2%
COCCCNC(=S)N(CCCO)Cc1cc2cc3c(cc2[nH]c1=O)OCO3	8%
CC1(C)CC(=O)C=C(NCCc2c[nH]c3ccccc23)C1	-8%
CC(C)Cc1nnc(NC(=O)CCC(=O)Nc2ccccc2)s1	4%
O=C(CSc1nnc(CCc2ccccc2)n1-c1ccc(Cl)cc1)NCc1ccccc1	-17%
O=C(NC(=S)NNC(=O)c1ccccc1O)c1ccc([N+](=O)[O-])cc1	-5%
Cc1nc2nc(C)c(CCC(=O)O)c(C)n2n1	5%
O=C(CCC1CCCN(Cc2ccc(O)c(Cl)c2)C1)NCc1ccccc1F (stereo not drawn)	-4%
O=C(CSc1cn[nH]n1)Nc1ccccc1F	-7%
Cc1nc(SCC(=O)Nc2ccc(C(=O)O)cc2)n[nH]1	-1%
COC(=O)C1=CN(CCCN2CCCC2=O)C=C(C(=O)OC)C1c1ccccc1C(F)(F)F	11%
O=C(NC(Cc1ccc2c(c1)OCO2)C(=O)N1CCCC1C(=O)O)c1ccccc1 (stereo not drawn)	7%
CCOc1ccc(NC(=O)CN(C)C(=O)C2CCN(C(=O)c3ccc(Cl)cc3)CC2)cc1OCC	19%
Cc1ccnc(NC(=O)c2ccc(NC(=O)CC3SC(N4CCCC4)=NC3=O)cc2)c1 (stereo not drawn)	-12%
COc1ccc(OCCOC(=O)CNC(=O)c2cccc(C)c2)cc1	-5%
c1ccc(Cc2noc(CN3CCCN(C4Cc5ccccc5C4)CC3)n2)cc1	4%
Cc1ccc2nc(-c3ccccn3)cc(C(=O)N3CCN(c4ncccn4)CC3)c2c1	-5%
CCOC(=O)c1cc2oc(C)cc2n1CC(=O)OC1CCCCC1	-6%
O=C(COC(=O)c1cnccn1)Nc1cc(S(=O)(=O)N2CCOCC2)ccc1Cl	-13%
CCOC(=O)Cn1nc(NC(=O)c2ccc3c(c2)OCO3)cc1C	-14%
O=C(COC(=O)/C=C/C(=O)N1CCN(c2ccccc2)CC1)NCc1ccc(F)cc1	2%
CCC(C)Sc1nnc(CNC(=O)C23CC4CC(CC(C4)C2)C3)n1C1CCCCC1 (stereo not drawn)	5%
O=C(C1CCCCC1)N1CCC(CO)(Cc2ccccc2Cl)CC1	12%
Cc1ccc(C(C)C)cc1OCC(=O)NC1CCCCCCC1	u
CC(=O)Nc1cc(NC(C)=O)cc(C(=O)OCC(=O)c2ccc3c(c2)NC(=O)CO3)c1	12%
CC(=O)c1cccc(NC(=O)COC(=O)CCc2ccc(S(=O)(=O)N3CCOCC3)cc2)c1	-14%
OCC[C@H]1C[C@@H](O)[C@H](O)[C@@]2(CCCO2)O1	20%
COc1ccc(CCNC(=O)COc2ccc(-c3ccc(C)cc3)cc2)cc1OC	7%
CCc1ccccc1NC(=O)Nc1cccs1	0%
CCOc1cccc(C(=O)Nc2cccc(NC(=O)c3ccco3)c2)c1	-4%
O=C(C1CCCN(Cc2ccccc2F)C1)N1CCCC1 (stereo not drawn)	21%
Cc1ccnc(N2C(=O)c3ccccc3C2Nc2ccc3c(c2)OCCO3)c1 (stereo not drawn)	-22%
Cc1cc(C(=O)c2ccccc2)nc2ccccc12	0%
CCOC(=O)c1c(C)[nH]c(O)c1C=Nc1ccccc1	-14%
Cc1cccc(C)c1OCCCCN1CCCCC1	-4%
Cc1ccnc(Nc2nc(-c3ccccc3)cs2)c1	1%
O=C(CCC1N=C2c3ccccc3N=C(SCC(=O)NCCc3ccccc3)N2C1=O)NCc1ccc(F)cc1 (stereo not drawn)	5%
COc1ccc2c(COC(=O)CCS(=O)(=O)c3ccc(C)cc3)cc(=O)oc2c1	4%
Cc1ccc(/C=N/NC(=O)Cc2cccs2)o1	-24%
O=C(c1cc(-c2ccncc2)nc2ccccc12)N1CCOCC1	2%

Five compounds already listed, sorted by formula weight, rising:
SMILES	VDR inhibitor
OCC[C@H]1C[C@@H](O)[C@H](O)[C@@]2(CCCO2)O1	20%
COC(=O)N1CCN(CCc2ccccc2)CC1	12%
CC(C)Cc1nnc(NC(=O)CCC(=O)Nc2ccccc2)s1	4%
CCC(C)Sc1nnc(CNC(=O)C23CC4CC(CC(C4)C2)C3)n1C1CCCCC1 (stereo not drawn)	5%
Cc1c(Cc2ccccc2)c(=O)oc2c(C)c(OCC(=O)N[C@@H](Cc3ccccc3)C(=O)O)ccc12	u

Next section
SMILES	VDR inhibitor
Cc1cc(=O)oc2cc(OC(C)C(=O)N3CCCc4ccccc43)ccc12 (stereo not drawn)	-11%
O=C(CCC1CCCC1)Nc1ccccc1-c1ccccc1	-2%
CCSc1nnc(NC(=O)CSc2nc(C)cc(C)n2)s1	9%
CCCCCCCc1c(O)nc(SCC(=O)O)[nH]c1=O	-5%
COC(=O)C(CCSC)NC(=O)Cn1ncc2c(=O)oc3ccccc3c21 (stereo not drawn)	-6%
Cc1ccc(OCC(=O)N/N=C/c2ccncc2)cc1	-7%
COc1ccc(/C=N/N2CCOCC2)cc1COc1ccc(F)cc1	4%
Cc1c(C(=O)c2no[n+]([O-])c2C(=O)c2cnn(C)c2C)cnn1C	u
O=C(Oc1ccccc1)N1CCC2(CCCN(c3ncccn3)C2)CC1	-10%
CCS(=O)(=O)Nc1ccc(C2=NN(S(=O)(=O)c3ccc(F)cc3)C(c3ccco3)C2)cc1 (stereo not drawn)	-4%
CC(=O)c1ccc(NC(=O)c2cc(Cl)sc2Cl)cc1	-2%
COc1ccccc1N1CCN(C(=O)c2oc3cc(C)c(C)cc3c2C)CC1	13%
Cc1ccc2c(c1)N(CC(=O)NCC1CCCO1)C(=O)C(C)O2 (stereo not drawn)	8%
Cc1ccccc1COc1ccc(-c2nn[nH]n2)cc1	-8%
C/C(=N/N1CCN(Cc2cccc3ccccc23)CC1)c1ccco1	10%

Screening results: PubChem, National Center for Advancing Translational Sciences (NCATS)
